# Compound activity from PubChem.
# gsp agonist: agonists of gsp mutant (McCune-Albright syndrome). Potency, µM (titrated, usually from 76.9 µM), without a hit: at the highest dose activation (cAMP increase), usual class: activators. AID 624287. actives 0.13% (n = 340,000). gsp mutant cells, cAMP HTRF, 30 min; control for the full effect not named in the record; active = well fitted activation curve with a large enough effect; inconclusive = small, poorly fitted or top-dose-only effect, or another doubt; inactive = no such curve, though single readings can be large or run the other way; cell line not stated here;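 further: phosphodiesterase inhibitor Ro 20-1724 added with compounds to block cAMP breakdown; potency means the concentration at half of the fitted maximal effect; nearly all actives have a fitted effect of over 60% in size; about a fifth of the inactives were tested at one dose only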
#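 Cells stably selected in G418 were plated at 2000/well, grown 16-24 hr, then given compounds in DMSO with the PDE inhibitor […] (300 uM solution added) for 30 min at 37C; cAMP was read by HTRF.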
# TRPML1 agonist: activates the human TRPML1 channel | TRPML1-expressing cells, Ca2+ dye fluorescence, FDSS; host cell line not named in the record; reference of the full effect not given here | activation, % (test concentration not listed) | Q9GZU1 | actives 0.12% (n = 410,000); in the data active = activation above about 50%; inconclusive = about 30% to 50%; inactive = below about 30%; further: 0% is about no effect; the text of the record puts the active cut at 80%
# Target sequence (Q9GZU1 whole entry, looked up): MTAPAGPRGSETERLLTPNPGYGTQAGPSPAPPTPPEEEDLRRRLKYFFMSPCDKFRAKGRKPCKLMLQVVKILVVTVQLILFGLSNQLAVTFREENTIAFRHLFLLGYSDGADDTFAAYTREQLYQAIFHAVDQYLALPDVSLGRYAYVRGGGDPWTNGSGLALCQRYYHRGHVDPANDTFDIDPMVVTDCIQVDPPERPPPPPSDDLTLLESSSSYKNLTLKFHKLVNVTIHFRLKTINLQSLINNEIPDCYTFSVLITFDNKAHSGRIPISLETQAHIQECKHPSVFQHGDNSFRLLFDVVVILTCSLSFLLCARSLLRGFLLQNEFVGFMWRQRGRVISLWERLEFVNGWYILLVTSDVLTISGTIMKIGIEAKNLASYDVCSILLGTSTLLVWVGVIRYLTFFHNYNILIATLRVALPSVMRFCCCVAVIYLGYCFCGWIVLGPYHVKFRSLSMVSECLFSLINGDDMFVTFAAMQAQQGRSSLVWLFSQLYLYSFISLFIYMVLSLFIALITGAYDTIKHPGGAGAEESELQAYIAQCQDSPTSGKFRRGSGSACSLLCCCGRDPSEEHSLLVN
#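 Kinetic FDSS Ca2+ read in Tet-induced TRPML1-DL cells (ABD Ca8 dye plus quencher, 45-90 min RT loading): baseline, then compound, then 110 s agonist window; EC80 agonist 54-4 at 4uM final added afterwards for a 110 s antagonist window.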
# TRPML1 blocker: inhibitors of human TRPML1 channel | Q9GZU1 | TRPML1-inducible cells, Ca2+ dye fluorescence, FDSS; stronger effect = lower value; inhibition of EC80 agonist-evoked calcium signal | actives 0.02% (n = 390,000) | activity change, negative = inhibition, % (no concentration beside the values); in the data active means activity change below about -50%; inconclusive means about -30% to -50%; inactive means above about -30%;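 further: stimulus is agonist 54-4 at its EC80 concentration; on the % scale 0 is the no-effect control and ±100 the full control effect; compound concentration not given in the record; the text of the record puts the active cut at -80%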
#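 Tet-induced TRPML1-DL cells loaded with Ca8 no-wash calcium dye were read kinetically on FDSS. Compound addition was followed by EC80 agonist 54-4 (4 uM final); inhibition was read over 110 s.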
# ClpP mod: qHTS Assay for Activators of ClpP. purified B. subtilis ClpP, FRET peptide cleavage, 20 min. Potency, µM (series often up to 57.5 µM), inactives show at the highest dose activity change, negative = active. AID 651965, 2013. ATP-dependent Clp protease proteolytic subunit (Bacillus subtilis (strain 168)), P80244. actives 1.9% (n = 340,000); active = well fitted falling curve with a large enough effect; inconclusive = small, poorly fitted or top-dose-only effect; inactive = no such curve, though single readings can be large or run the other way; further: potency means the concentration at half of the fitted maximal effect; the source files actives as falling curves though it sought activators and does not explain the sign; nearly all actives have a fitted effect of over 65% in size; many hits overshoot -100%
# Target sequence (P80244 whole entry, looked up): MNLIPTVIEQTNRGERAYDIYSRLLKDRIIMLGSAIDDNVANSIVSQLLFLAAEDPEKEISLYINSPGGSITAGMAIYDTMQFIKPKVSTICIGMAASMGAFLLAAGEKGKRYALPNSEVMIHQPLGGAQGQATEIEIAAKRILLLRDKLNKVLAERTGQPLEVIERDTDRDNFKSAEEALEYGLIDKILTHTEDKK
#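 FRET quenching reversal measured ClpP activation: 10 microg/mL B. subtilis ClpP at pH 8 with the FRET-FV decapeptide, read at 430 nm after 320 nm excitation. The 20-min minus 0-min signal was scaled between DMSO/no-enzyme wells and ADEP (5.8 microM final).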
# Menin-MLL FL inh: menin-MLL binding inhibition, fluorescein peptide | Fluorescence polarization, fluorescein-MLL peptide displacement from menin | FP activity change, % at 61.4 µM | 290,000 tested, under 10 active; inconclusive = falling polarisation curve, or a change in total fluorescence; inactive = total fluorescence flat and polarisation flat or rising; no compound was filed as active; the % refers to the polarisation; negative = inhibition;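 further: % of control where 0% means no effect; inhibitors lower the polarisation; unlabelled MLL peptide was the positive control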
# gsp antag: antagonizes gsp, the McCune-Albright syndrome mutation | gsp-mutant cells, cAMP HTRF, 30 min; control for the full effect not named in the record | actives 0.4% (n = 340,000) | Potency, µM (doses to about 76.9 µM), for the others: at the top dose activity change, negative = inhibition, usual class: inhibitors; active = falling curve of any shape with a large fitted effect; inconclusive = falling curve, mostly with a smaller effect; inactive = flat or rising curve; cell line not stated here;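 further: intracellular cAMP measured with PDE inhibitor Ro 20-1724 present during compound exposure; potency means the concentration at half of the fitted maximal effect; on the % scale 0 is the no-effect control and ±100 the full control effect; nearly all actives have a fitted effect of over 65% in size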
#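 Cells in G418 medium, seeded 16-24 h, 37C; buffer exchange to DPBS + 1 mM CaCl2, 0.5 mM MgCl2, 0.05% BSA; cpds in DMSO + […] (300 uM stock), 30 min 37C; HTRF cAMP detection.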
# An asterisk follows results filed as active; ? = inconclusive; · = no result given; [ ] = remark or other dose.
SMILES,gsp agonist,TRPML1 agonist,TRPML1 blocker,ClpP mod,Menin-MLL FL inh,gsp antag
Cc1nnc2ccc(-c3ccc(NS(=O)(=O)c4ccccc4)cc3)nn12,-43%[inhibitor],0.1,2,-2.0%,·,8%
CCOC(=O)CNC(=O)CC(c1cc(OC)c(OC)c(OC)c1)N1Cc2ccccc2C1=O (configuration not stated),·,0.9,?,-1.7%,·,·
CC(OC(=O)Cc1ccccc1F)C(=O)Nc1ccc(Cl)cn1 (configuration not stated),9%,2.6,13,1.8%,·,-5%
CCCN(CCC)CCNC(=O)CS(=O)Cc1nc(-c2ccc(OC)c(OC)c2)oc1C (configuration not stated),·,-0.8,13,32µM*,·,·
Cc1ccc2c(c1)c1c(c(=O)n(-c3ccccc3)c(=O)n1CC(=O)c1ccc(Cl)cc1)n2C,·,1.2,-12,-6.3%,·,·
COc1ccc(N(CC(=O)N/N=C/c2cccc3c2OCCO3)S(=O)(=O)c2ccc(NC(C)=O)cc2)cc1,3%,0.7,-17,?,-0.2,-17%
CCOC(=O)c1cc2occc2n1CC(=O)NC1CCCCC1C (configuration not stated),24%,0.4,-15,1.3%,-1.7,7%
Cc1cccc(NC(=O)Cn2nc(-c3ccccc3)c3cnc4ccccc4c32)c1,·,0.2,-12,-2.4%,·,·
O=C(Nc1ccon1)c1ccc(OC2CCCC2)cc1,?,1.2,5,-27%,2.6,-4%
CCOc1cc(/C=C2\N=C(C)OC2=O)cc(Br)c1OCCc1ccccc1,-35%[inhibitor],0.2,-6,-3.4%,1.2,2%
COc1cc(/C=C/C(=O)OCC(=O)Nc2cc(S(=O)(=O)N3CCCC3)ccc2Cl)cc(OC)c1OC,2%[15.4 µM],1.0,-4,-0.5%,·,-13%
CC1(C)CC(=O)C(CSC(=O)c2ccccc2)C(=O)C1,6%,-0.5,1,-2.3%,·,·
CCCOc1ccc(-c2nc3ccc(Br)cc3c(=O)o2)cc1,·,-0.8,-2,-0.8%,·,·
CCN(CC)S(=O)(=O)c1cc(NS(=O)(=O)c2ccc(Cl)c(C(=O)O)c2)ccc1C,26%,0.0,4,1.6%,0.5,-5%
CC(=O)N/C(=N/c1nc(C)cc(C)n1)Nc1ccc(NC(C)=O)cc1,-28%,-0.4,-19,-1.2%,3.2,-7%
CCOC(=O)c1cc(-c2ccccc2)n(CCCC(=O)Nc2ccc(C(C)C)cc2)c1C,·,2.1,0,-12%,·,·
CCNC(=O)NC(=O)COC(=O)CCc1nc(=O)c2ccccc2n1C,?,1.0,-8,·,-1.1,15%
COc1ccc(C(CNc2ncnc3sccc23)N(C)C)cc1OC (configuration not stated),10%,1.4,-14,·,10,0%
O=c1c(-c2ccccc2)c(O)c2c(n1-c1ccccc1)CCCC2,-7%,-0.6,5,-18%,8.7,1%
CCN(CC)c1ncnc2ccc(Br)cc12,18µM*,1.1,-1,0.2%,0.9,1%
C#CCCOC(=O)N1C2=NC(C(=O)OC)=C(C(=O)OC)[C@@H]3N(CC=C)c4ccccc4[C@]23C[C@H]1C(=O)OC,·,-0.8,11,0.9%,-3.5[11.7 µM],-6%
CC(=O)Oc1ccc(C2C3=C(CC(C)(C)CC3=O)Nc3cc4c(cc32)OCCO4)cc1 (configuration not stated),?,·,·,3.8%,0.0,1%
O=C(O)c1cccc(Oc2ncnc3sc4c(c23)CCCC4)c1,?,1.1,-3,-2.1%,1.9,-23%
O=C(CSc1nc2ccccc2o1)c1ccccc1,18%,3.6,11,-2.0%,6.0,0%
CCc1c(C)nc(SCC(=O)N2CC(C)OC(C)C2)[nH]c1=O (configuration not stated),?,-0.4,19,-2.2%,·,8%

# Taken from the results shown for reference:
SMILES,gsp agonist,TRPML1 agonist,TRPML1 blocker,ClpP mod,Menin-MLL FL inh,gsp antag
Cc1nnc2ccc(-c3ccc(NS(=O)(=O)c4ccccc4)cc3)nn12,-43%[inhibitor],0.1,2,-2.0%,·,8%
CCOC(=O)CNC(=O)CC(c1cc(OC)c(OC)c(OC)c1)N1Cc2ccccc2C1=O (configuration not stated),·,0.9,?,-1.7%,·,·
CC(OC(=O)Cc1ccccc1F)C(=O)Nc1ccc(Cl)cn1 (configuration not stated),9%,2.6,13,1.8%,·,-5%
CCCN(CCC)CCNC(=O)CS(=O)Cc1nc(-c2ccc(OC)c(OC)c2)oc1C (configuration not stated),·,-0.8,13,32µM*,·,·
Cc1ccc2c(c1)c1c(c(=O)n(-c3ccccc3)c(=O)n1CC(=O)c1ccc(Cl)cc1)n2C,·,1.2,-12,-6.3%,·,·

# The listing continues:
SMILES,gsp agonist,TRPML1 agonist,TRPML1 blocker,ClpP mod,Menin-MLL FL inh,gsp antag
CCOc1ccccc1CNC(=O)CCNS(=O)(=O)c1ccc2[nH]c(=O)oc2c1,?,-0.9,10,-1.0%,0.8,7%
CC(C)N1C(=O)S/C(=C\c2ccc(-c3ccc(Cl)c(C(=O)O)c3)o2)C1=O,-21%,1.1,10,-1.0%,?,?
CCOP(=O)(CN(CC)C(=O)c1ccccc1Br)OCC,5%[15.4 µM],-0.4,19,0.0%,4.9,-8%
Cc1cn([C@H]2C[C@H](O)[C@@H](CCC(=O)NCCc3ccc4ccccc4c3)O2)c(=O)[nH]c1=O,·,-0.3,-3,1.6%,·,·
CCc1ccccc1NC(=O)Nc1ccsc1C(=O)OC,-6%,0.3,-22,-0.5%,2.8,9%
CN(C)CCCN(C(=O)c1ccc(S(=O)(=O)N2CCc3ccccc3C2)cc1)c1nc2c(F)cccc2s1,-52%[inhibitor],-0.2,6,-0.9%,0.0,-8%
CC(OC(=O)c1cccnc1Cl)C(=O)Nc1ccc2c(c1)OCO2 (configuration not stated),?,-0.9,8,0.7%,·,-2%
Cc1cc(C)cc(N2C(=O)C3C4C=CC(C4)C3C2=O)c1 (configuration not stated),-14%,-1.7,2,-5.2%,4.1,-2%
Cc1ccc(C)c(S(=O)(=O)Nc2ccc(C(=O)NCC(c3ccco3)N(C)C)cc2)c1 (configuration not stated),2%[15.4 µM],0.5,20,-0.9%,·,4%
COc1cccc(/C=C/C(=O)Nc2ccc3nc4n(c(=O)c3c2)CCCC4)c1OC,?,0.7,-14,-5.2%,2.6,3%
O=C(CNC(=O)c1ccc(Br)o1)Nc1ccc(N2CCCCCC2)cc1,-10%,1.7,24,-2.3%,·,3%
CC1=C(C(N)=O)C(c2ccccc2Br)n2ncnc2N1 (configuration not stated),·,0.9,-7,-1.2%,·,·
CC(C)(C)c1ccc(OCCN2CCCC2)cc1,-28%,0.4,5,1.4%,1.5,1%
Cc1ccc(C(=O)NC2CCCC2)cc1S(=O)(=O)N1CCCCC1,-3%,0.6,9,-1.3%,0.2,-8%
Fc1ccccc1COc1ccccc1/C=N/Nc1nc(N2CCCC2)nc(N2CCCC2)n1,11%,0.0,14,13%,1.1,-14%
COCCNc1oc(-c2ccccc2)nc1S(=O)(=O)c1ccc(Br)cc1,·,-0.5,-2,-15%,·,·
O=C(Cc1ccc(F)cc1)N1CCOCC1,-1%[15.4 µM],0.5,3,-1.5%,4.9,-12%
CC(=O)c1c(C)oc2ccc(OCc3ccccc3)cc12,-1%,1.4,-7,0.6%,1.5,-24%
O=C(/C=C/c1ccco1)Nc1nc(-c2ccccn2)cs1,8%,0.5,-8,-6.8%,14,2%
O=C(NC(=S)Nc1ccccc1[N+](=O)[O-])c1ccccc1,-5%[15.4 µM],-0.6,7,-0.7%,3.5,-5%
CCCCc1cc(=O)oc2cc(OCC(=O)N(CC)CC)ccc12,8%,-0.6,10,28µM*,-3.8,-2%
O=c1cc(-c2ccccc2)[nH]n2cnnc12,0%,-0.4,-1,·,-19,-3%
COc1cc(NC(=O)c2cc(C3CC3)nc3c2c(C)nn3-c2ccc(C)cc2)cc(OC)c1,·,1.0,44,4.2%,·,·
CC(=O)c1cccc(Nc2cc(C)nc3c(C)cc(C)cc23)c1,?,-0.5,22,-0.9%,4.3,4%
COc1ccc(CCNC(=O)c2cnc3ccc(C)cn3c2=O)cc1OC,·,-0.9,3,-20%,·,·

# 2 records drawn at random from the list so far:
SMILES,gsp agonist,TRPML1 agonist,TRPML1 blocker,ClpP mod,Menin-MLL FL inh,gsp antag
CCOc1ccccc1CNC(=O)CCNS(=O)(=O)c1ccc2[nH]c(=O)oc2c1,?,-0.9,10,-1.0%,0.8,7%
CC(OC(=O)c1cccnc1Cl)C(=O)Nc1ccc2c(c1)OCO2 (configuration not stated),?,-0.9,8,0.7%,·,-2%

# Next results:
SMILES,gsp agonist,TRPML1 agonist,TRPML1 blocker,ClpP mod,Menin-MLL FL inh,gsp antag
C=C1CC2(CC(c3ccccc3)OC(c3ccccc3)C2)OC1=O (configuration not stated),-21%,0.3,-2,-1.0%,·,3%
O=[N+]([O-])c1ccc(Cl)c(/C=N/N2CCN(c3ccccc3)CC2)c1,?,0.1,28,0.6%,-0.1,-11%
CC(C)C(=O)c1ccc(O)c(O)c1,1%,0.9,-11,-3.1%,-1.6,3%
O=C(Cn1cc(C(=O)C(F)(F)F)c2ccccc21)N1CCOCC1,16%[15.4 µM],-0.1,-19,·,7.0,11%
CC1(C)CCC(=O)C=C1Nc1ccc(F)c(Cl)c1,3%,·,·,-2.1%,3.9,-8%
CC(=O)c1ccc(N=Nc2ccc(C)cc2)cc1,-11%,-0.7,14,·,-1.8,9%
O=C(CSc1cn(CC(=O)N2CCOCC2)c2ccccc12)N1CCOCC1,?,-0.3,1,0.0%,-10,8%
O=C(Oc1ccc(-c2cnc3ccccc3n2)cc1)c1ccco1,-39%[inhibitor],0.1,4,-11%,1.9,10%
Cc1cc(C)nc(N/N=C/c2cc(C)n(CC(F)(F)F)c2C)n1,-43%,-0.1,1,-1.8%,-4.2,-22%
O=c1[nH]c(C2CCCN(S(=O)(=O)c3ccc(F)cc3)C2)nc2c1nnn2Cc1ccc(F)cc1 (configuration not stated),6%,1.0,2,·,-4.6,-13%
CN1CCN(S(=O)(=O)c2ccc(Oc3ccc(F)cc3Br)nc2)CC1,20%[15.4 µM],0.8,-20,·,-5.5,12%
Cc1ccc(C)c(N2CCN(C(=O)C3CCCN(S(=O)(=O)c4cccc5nsnc45)C3)CC2)c1 (configuration not stated),·,-1.4,20,1.2%,·,·
Cc1c(NC(=O)c2cnn3c2NC(c2ccco2)CC3C(F)(F)F)c(=O)n(-c2ccccc2)n1C (configuration not stated),11%,-0.4,35,-0.5%,24,2%
O=[n+]1c2c(n([O-])c3c1CCCC3)CCCC2,14%,1.6,-4,0.1%,1.3,-7%
CCOC(=O)c1cnc2cc(-c3ccc(Cl)cc3)nn2c1N,-32%[inhibitor],-0.5,10,-0.8%,0.9,8%
Cc1cc(N2CCCC2)ccc1/C=C1\NC(=S)N(C)C1=O,-45%[inhibitor],28,-7,0.5%,?,-16%
